B2AR ag: human beta-2 adrenergic receptor agonism by FAP | P07550 | response, % (test concentration not listed) | Am2.2-beta2AR cells, FAP receptor internalization, flow cytometry; reference of the scale not given here | 340,000 tested, 0.43% active;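 active means response above a set limit, near 3 SD of response in nonfluorescent compounds, cut at about 42% in these data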;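 further: stock transfer was 100 nL into about 11 µL; a reference agonist was the positive control; negative values mostly stem from fluorescent compounds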
Target sequence (P07550 whole entry, looked up): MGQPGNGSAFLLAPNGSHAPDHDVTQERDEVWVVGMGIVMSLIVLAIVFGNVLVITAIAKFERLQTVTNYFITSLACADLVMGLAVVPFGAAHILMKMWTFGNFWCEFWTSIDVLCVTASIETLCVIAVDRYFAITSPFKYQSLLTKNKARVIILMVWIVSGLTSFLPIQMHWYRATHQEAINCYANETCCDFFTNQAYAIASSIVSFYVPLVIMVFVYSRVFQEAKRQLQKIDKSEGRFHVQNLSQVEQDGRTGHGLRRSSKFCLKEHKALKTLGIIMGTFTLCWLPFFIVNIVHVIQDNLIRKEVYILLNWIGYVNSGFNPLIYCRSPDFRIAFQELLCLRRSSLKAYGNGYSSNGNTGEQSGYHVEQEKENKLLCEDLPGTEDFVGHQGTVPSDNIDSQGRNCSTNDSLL
RanGTP-Impb inh: disruptors of Ran-importin-beta complex formation – biochemical, FRET, CFP-Ran, YFP-importin-beta, homogeneous, primary screen | cell-free CFP-Ran/YFP-importin-beta FRET ratio | inhibition, % (concentration not given with the values) | 300,000 tested, 1.1% active;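 active means most replicates above 15%; inconclusive means exactly half above 15%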;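 further: 0% = DMSO wells and 100% = Ran loaded with GDP instead of GTP; wells of about 40 µL received 100 nL stock; the first replicate is given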
Calb FLC: affects C. albicans growth with fluconazole; C. albicans CaCi-2 (fluconazole-resistant clinical isolate) + fluconazole, Alamar Blue growth, 48 h; growth inhibition, % (concentration not given with the values); 300,000 tested, 0.57% active; AID 1979;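 active means most replicates above 75%; inconclusive means exactly half above 75%; inactive means most below 75%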;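 further: all wells also contain fluconazole at 8 µg/ml as a sub-toxic cotreatment; 0% = median of DMSO wells and 100% = median of geldanamycin control wells; wells of about 8 µL received 7.5 nL stock; the first replicate is given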
LANA-H2A inh: blocks KSHV LANA binding to histone H2A/H2B; Q9QR71; cell-free LANA-H2A/H2B peptide, fluorescence polarization; inhibition, % (concentration not given with the values); 320,000 tested, 0.6% active; in the data active means inhibition mostly above about 10%, no sharp cut-off; inactive means mostly below about 6.7%;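 further: stock transfer was 7.5 nL into about 10 µL; 0% = median of vehicle wells and 100% = median of positive control wells; one replicate is shown; the record names a cut of 25% in any replicate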
UCH37 inh: blocks the human deubiquitinase UCH37 | inhibition, % (concentration not given with the values) | AID 588478 | purified proteasome/UCH37, Ub-AMC cleavage fluorescence | 330,000 tested, 0.33% active | Q9Y5K5;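 active means mean of two replicates above 20%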;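 further: 0% = compound-free wells with enzyme and 100% = wells lacking proteasome; stock transfer was 100 nL into about 20 µL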
Target sequence (Q9Y5K5 whole entry, looked up): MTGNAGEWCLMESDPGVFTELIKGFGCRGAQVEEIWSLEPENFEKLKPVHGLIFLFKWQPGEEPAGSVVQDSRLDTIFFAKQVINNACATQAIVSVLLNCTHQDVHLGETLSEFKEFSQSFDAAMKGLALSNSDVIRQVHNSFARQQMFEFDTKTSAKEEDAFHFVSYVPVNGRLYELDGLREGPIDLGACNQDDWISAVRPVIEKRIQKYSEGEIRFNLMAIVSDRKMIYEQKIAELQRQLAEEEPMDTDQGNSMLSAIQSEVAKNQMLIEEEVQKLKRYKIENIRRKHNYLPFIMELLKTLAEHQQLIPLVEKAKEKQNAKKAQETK
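System: Proteasome-associated human UCH37 deubiquitinase; Input: 0.15 nM proteasome in added enzyme buffer; Also added: Ub-AMC substrate from 1 µM stock; Incubation: 30 min compound-proteasome preincubation then 25 min substrate reaction, room temperature; Detection: fluorescence, ex 355 nm, em 460 nm; Read-out: % inhibition of Ub-AMC cleavage fluorescence; Benchmarks: no-proteasome and no-compound wells.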
Bfl-1 A1 inh: inhibitors of the anti-apoptotic protein A1, read as caspase activation; 330,000 tested, 0.066% active; caspase activation, % (concentration not given with the values); MEF A1-2A-BIM cells, Caspase-Glo 3/7 luminescence, 3 h; percent of clofoctol response, vehicle zero;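 active means over half of replicate activation scores above 10%, or exactly half above 10 with the replicate mean above 10; inconclusive means replicate mean below 10 yet half the replicates above 10; inactive means over half of replicates below 10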;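 further: wells of about 30 µL received 50 nL stock; many hits fall short of the cut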
T cruzi inh: T. cruzi replication inhibition | T. cruzi beta-gal in NIH3T3, luminescence, 90 h | inhibition, % (test concentration not listed) | 300,000 tested, 1.4% active;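 active means mean inhibition across valid replicates above about 55%, limit read from the data; inconclusive means mean below that limit but half or more replicates reach it; inactive means mean below it, under half of replicates reach it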;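 further: signal also drops with host cell toxicity which is not excluded here; 0% = plate median of DMSO wells and 100% = zero luminescence signal; higher percent means less beta-gal luminescence so fewer parasites; stock transfer was 50 nL into about 50 µL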
Beta apoptosis: blocks beta cell apoptosis. INS-1E cytokine-induced death, ATP luminescence, 48 h; percent of positive-control rescue, neutral wells zero. protection from apoptosis, % (no concentration beside the values). 300,000 tested, 0.8% active. AID 435005;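 active means all replicates at 75% or more, or half of them and the mean; inconclusive means half reach 75% but not the mean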;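 further: 0% = cytokine-treated negative control wells and 100% = positive control rescue; higher means more ATP so stronger rescue from cytokine killing; wells of about 40 µL received 100 nL stock; the first replicate is given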
The depositor's hits bear a star; u = inconclusive; x = no result given. These rows are one share of the data. The share of hits here may be higher or lower than overall.

A first look (12 entries):
SMILES	B2AR ag	RanGTP-Impb inh	Calb FLC	LANA-H2A inh	UCH37 inh	Bfl-1 A1 inh	T cruzi inh	Beta apoptosis
CCN1CCN(C(=O)COc2ccc(S(=O)(=O)N(C)Cc3ccccc3)cc2)CC1	-4	u	-31	7.5	-1.5	-0.2	37	-2
CC(C)CC(NC(=O)CCCNC(=O)CCC(=O)OC1O[C@H]2OC3(C)CC[C@H]4[C@H](C)CCC(C1C)C24OO3)C(=O)O (some centres not stated)	6	2.5	27	1.3	x	-0.5	10	22
CCCCOC(=O)c1ccc(NC(=O)c2c(O)[nH]c(=O)[nH]c2=O)cc1	2	-2.6	14	-3.2	3.3	-2.2	-8	0
CC(=O)N1CCN(c2ccc([N+](=O)[O-])cc2C=C2C(=O)NC(=O)NC2=O)CC1	0	-1.0	-3	1.1	7.9	-0.5	-9	-6
COc1ccccc1N1CCN(Cc2ccc(Br)s2)CC1	10	3.2	17	0.9	6.3	0.0	-16	0
COC(=O)C1=Nc2ccccc2/C1=C\c1c(O)n(-c2cc(OC)ccc2OC)c(=O)[nH]c1=O	-6	-1.3	15	-5.0	3.6	0.3	-14	0
COc1cccc2c1O[C@H]1C(=O)CC[C@H]3CN(C)CCC231 (some centres not stated)	1	1.6	18	-1.2	0.9	1.9	-12	1
Cc1ccc(NC(=S)NCCc2cnc[nH]2)cc1C	1	-0.9	25	0.7	-2.9	-0.2	x	-7
COP(=O)(OC)C(NC(C)=O)C(Cl)(Cl)Cl (configuration not stated)	-2	5.5	16	-1.0	-1.1	0.4	-3	4
Cc1ccc2ccccc2c1NC(=O)CNC1CCCCC1	0	u	-7	3.2	4.6	-0.3	3	-3
COc1cc2c(cc1/C=C/[N+](=O)[O-])OCO2	41	2.8	30	x	2.6	x	51	x
Nc1ccc([N+](=O)[O-])cc1	13	x	x	-8.2	10	0.2	x	-1

All compounds of this part, previewed entries included:
SMILES	B2AR ag	RanGTP-Impb inh	Calb FLC	LANA-H2A inh	UCH37 inh	Bfl-1 A1 inh	T cruzi inh	Beta apoptosis
CCN1CCN(C(=O)COc2ccc(S(=O)(=O)N(C)Cc3ccccc3)cc2)CC1	-4	u	-31	7.5	-1.5	-0.2	37	-2
CC(C)CC(NC(=O)CCCNC(=O)CCC(=O)OC1O[C@H]2OC3(C)CC[C@H]4[C@H](C)CCC(C1C)C24OO3)C(=O)O (some centres not stated)	6	2.5	27	1.3	x	-0.5	10	22
CCCCOC(=O)c1ccc(NC(=O)c2c(O)[nH]c(=O)[nH]c2=O)cc1	2	-2.6	14	-3.2	3.3	-2.2	-8	0
CC(=O)N1CCN(c2ccc([N+](=O)[O-])cc2C=C2C(=O)NC(=O)NC2=O)CC1	0	-1.0	-3	1.1	7.9	-0.5	-9	-6
COc1ccccc1N1CCN(Cc2ccc(Br)s2)CC1	10	3.2	17	0.9	6.3	0.0	-16	0
COC(=O)C1=Nc2ccccc2/C1=C\c1c(O)n(-c2cc(OC)ccc2OC)c(=O)[nH]c1=O	-6	-1.3	15	-5.0	3.6	0.3	-14	0
COc1cccc2c1O[C@H]1C(=O)CC[C@H]3CN(C)CCC231 (some centres not stated)	1	1.6	18	-1.2	0.9	1.9	-12	1
Cc1ccc(NC(=S)NCCc2cnc[nH]2)cc1C	1	-0.9	25	0.7	-2.9	-0.2	x	-7
COP(=O)(OC)C(NC(C)=O)C(Cl)(Cl)Cl (configuration not stated)	-2	5.5	16	-1.0	-1.1	0.4	-3	4
Cc1ccc2ccccc2c1NC(=O)CNC1CCCCC1	0	u	-7	3.2	4.6	-0.3	3	-3
COc1cc2c(cc1/C=C/[N+](=O)[O-])OCO2	41	2.8	30	x	2.6	x	51	x
Nc1ccc([N+](=O)[O-])cc1	13	x	x	-8.2	10	0.2	x	-1
CC1(C)C(=O)CC[C@]2(C)C3C(=O)C=C4[C@H]5C[C@@](C)(C(=O)O)CC[C@]5(C)CC[C@]4(C)[C@]3(C)CC[C@@H]12 (some centres not stated)	-6	8.2	6	-3.8	2.5	0.0	-1	-7
CCc1ccc(-n2c(O)c(/C=N/N3CCCCC3c3cccnc3)c(=O)[nH]c2=O)cc1 (configuration not stated)	1	-2.6	-8	7.6	4.9	0.0	-21	-2
O=C(N/N=C/c1c(O)n(C2CC2)c(=S)[nH]c1=O)c1ccccc1	88*	1.2	x	-1.8	6.2	-0.4	-9	-6
NC1=NC(c2cccnc2)n2c(nc3ccccc32)N1 (configuration not stated)	x	-0.2	u	2.9	1.8	1.6	-10	1
CN(C)C(=O)Oc1ccc2nnc3ccnn3c2c1	-7	72*	4	1.6	-17	-0.3	-5	-1
O=P1(NCc2ccco2)COc2ccccc2OC1	2	-4.0	-6	-2.4	-2.7	0.9	0	-6
COc1cccc2cc(-c3cc(=O)oc4ccc(OC(=O)N(C)C)cc34)oc12	7	1.4	-6	2.5	-22	1.8	16	-6
COC(=O)C1=C(c2ccc3ccccc3c2)C[C@@H]2CC[C@H]1N2C(=O)NC(C)C	-6	x	x	-2.8	0.8	0.8	x	-2
COC(=O)C1=C(c2ccc(-c3ccccc3)c(F)c2)C[C@@H]2CC[C@H]1N2C(=O)NC1CC1	-1	x	x	5.2	-1.4	0.0	x	-3
CCOC(=O)C(O)(c1ccc(NC(=O)NC2CCCCC2)cc1)C(F)(F)F (configuration not stated)	-3	1.7	2	-7.5	3.8	-0.4	5	5
O=c1[nH]c(=O)n(Cc2ccco2)c(O)c1C=NCc1ccc2c(c1)OCO2	12	7.7	-23	-1.3	8.9	0.4	-14	3
COc1ccc(NC(=O)N2C[C@@H]3C[C@@H](C2)c2cccc(=O)n2C3)c(OC)c1	2	5.5	-5	-1.2	4.0	0.7	-11	0
CC1=CC(=O)OC2CC3OC4C[C@@H](C)C5OC6CC7O[C@]8(C)C/C=C\C9OC%10CC%11OC(CC(C)C%12OCCO%12)CC(O)[C@]%11(C)OC%10CC9OC8C[C@]7(C)O[C@]6(C)CCC5OC4C[C@]3(C)OC12 (some centres not stated)	2	x	x	-1.4	2.5	0.7	x	13
Remaining list, next part:
SMILES	B2AR ag	RanGTP-Impb inh	Calb FLC	LANA-H2A inh	UCH37 inh	Bfl-1 A1 inh	T cruzi inh	Beta apoptosis
O=c1[nH]c(=S)n(-c2ccccc2)c(O)c1/C=N/N1CCCCC1c1cccnc1 (configuration not stated)	-12	-2.4	-2	-16	x	-0.3	-4	-2
CC1(C)C[C@H]2C=C(C=O)[C@]3(C=O)C[C@]3(C)[C@H]2C1	23	1.9	-16	4.5	x	-0.5	u	105*
CCC(=O)N1CC(=O)Nc2ccc(Cl)cc2C1c1ccc(F)cc1 (configuration not stated)	10	0.8	0	0.6	-0.6	0.7	-2	-1
CN1CCC(O)(c2ccccc2)C(C(=O)c2ccccc2)C1 (configuration not stated)	3	-1.6	-4	2.2	2.7	0.3	23	-3
COCCN1C(=O)/C(=C/c2c(OC)cc(OC)cc2OC)C(=O)N(c2ccccc2)C1=O	-8	2.9	0	-3.5	1.5	-0.4	0	-5
CC/C(=N\Nc1ccccc1)c1c(O)n(-c2ccccc2)c(=O)[nH]c1=O	11	1.6	21	-2.7	9.8	-0.5	x	3
OC12CCCCC1C(c1ccccc1)NCC2 (configuration not stated)	-7	-0.9	-4	-10.0	5.0	1.1	0	-3
Nc1ccc(Cl)cc1C(=O)c1ccccc1	-3	5.7	-8	-6.7	0.9	1.2	0	-5
COC(=O)C1=C(c2ccc(Cl)c(C(F)(F)F)c2)C[C@@H]2CC[C@H]1N2C(=O)NCCOc1ccc(OC)cc1	11	x	x	2.0	1.1	0.4	x	2
O=C1C2CCCC1C(N1CCCCC1)CC2 (configuration not stated)	3	0.9	0	-5.6	0.3	0.4	-12	-9
CSc1ncc(CN2CCCC(C(=O)c3cccc(Cl)c3)C2)cn1 (configuration not stated)	-13	-2.2	-8	11	3.8	0.3	30	-7
Cc1ccc(-c2nc3ccccc3c(=O)n2-n2cccc2)cc1	6	0.7	1	2.4	-2.1	-0.8	-5	7
O=C1NC(=O)N(Cc2ccco2)C(=O)/C1=C\c1cccn1CCOc1ccc(Cl)cc1	-24	3.6	-8	0.8	4.3	-0.1	1	1
O=C(CN1CCCCC1)c1ccc(OC(F)F)cc1	7	23	9	x	0.0	1.4	7	-12
Cc1ccsc1C(=O)C1CCCN(Cc2ccc(-n3cccn3)cc2)C1 (configuration not stated)	-10	3.0	2	-3.6	5.6	-0.1	61*	-5
NNc1n[nH]c(=S)n1N	0	2.0	23	-0.9	x	-0.2	-18	-3
c1ccc(CCNCc2cccs2)cc1	3	3.5	5	-4.2	3.0	0.1	20	0
COc1ccc(N=C(C)c2c(O)[nH]c(=O)[nH]c2=O)cc1	1	-2.0	-7	0.1	7.3	1.0	3	-4
CCOC(=O)N(CC)c1ccc(C(O)(C(=O)OC)C(F)(F)F)cc1 (configuration not stated)	13	-3.0	-5	-0.8	1.4	1.3	-12	0
CC(=O)O[C@H]1CC[C@@]2(C)C(=CC[C@@H]3[C@@H]2CC[C@]2(C)C(=O)CC[C@@H]32)C1	-10	x	x	3.1	1.8	0.3	x	2
CCOc1cc(/C=C2\C(=O)NC(=O)N(C)C2=O)cc([N+](=O)[O-])c1O	2	2.9	12	1.8	5.4	-0.3	-12	-1
COCCNP(=O)(c1ccccc1)c1nc2ccccc2s1 (configuration not stated)	x	2.9	9	4.0	-2.9	-0.9	-10	-8
OCCOCC#CCN1CCOCC1	3	1.7	-1	1.0	-2.2	1.6	-22	-5
O=C1OC(c2ccc(Br)cc2)=N/C1=C\N1CC2CC(C1)c1cccc(=O)n1C2 (configuration not stated)	3	8.6	-6	0.4	14	0.5	5	-1
Cc1cccc(-n2c(CN3C(=O)c4ccccc4C3=O)nc3ccccc3c2=O)n1	-1	x	x	-409	1.6	0.6	x	-3
C=C1C[C@]2(O)[C@@]3(C)CCC(=O)C(C)(C)C3=C(O)C(=O)[C@@]2(C)[C@@H]2C(=O)O[C@@](C)(C(=O)OC)C(=O)[C@@]12C	6	-2.7	-6	-7.8	-1.5	-0.1	18	-2

Screening results from PubChem BioAssay.
